# Compound activity: PubChem, Broad Institute
# UUG fidelity: yeast start codon fidelity modulation; AID 602363; S. cerevisiae UUG-firefly luciferase reporter, luminescence/redox ratio; activity score, % at 18.7 µM; actives 0.13% (n = 350,000);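 active means replicate mean at a twofold rise or more, about +100% in these data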;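 further: firefly luciferase made from a UUG start codon reports start codon fidelity; reporter light over untreated wells divided by growth signal over untreated wells; some hits fall short of that in this replicate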
# Env fusion inh: blocks HIV Env-driven cell-cell fusion; HeLa-JRFL Env/CEM21 cell fusion, luciferase; inhibition, % at 12.3 µM; actives 1.1% (n = 360,000); AID 651610;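 active means mean replicate inhibition score of at least 50 and every replicate individually at or above 50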;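 further: 0% = plate neutral controls and 100% = maraviroc near 300 nM; one replicate is shown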
# * marks the source's active call; other numbers are inactive results; & = joins results of further samples; [ ] = another dose, or the depositor's remark.
# Screens in order: UUG fidelity, Env fusion inh
CC(C)CC#Cc1cnc2c(c1)C(=O)N([C@H](C)CO)C[C@H](C)[C@H](CN(C)C(=O)Cc1ccncc1)O2
  -7, 0[16.7 µM]
Cc1ccc(S(=O)(=O)N[C@@H]2CC[C@H](CC(=O)NC3CCCCC3)O[C@H]2CO)cc1
  -2, -16[16.7 µM]
Cc1ccc(-c2ccc3c(c2)O[C@H](CN(C)Cc2ccccn2)[C@@H](C)CN([C@H](C)CO)S3(=O)=O)cc1
  -10, -11[16.7 µM]
COc1ccc(NC(=O)Nc2ccc3c(c2)[C@@H]2C[C@@H](CC(=O)NC4CCCC4)O[C@@H](CO)[C@@H]2O3)cc1
  5, -1[16.7 µM]
C[C@H](CO)N1C[C@H](C)[C@H](CN(C)Cc2cccnc2)Oc2ncc(-c3cccc(F)c3)cc2C1=O
  -16, -5[16.7 µM]
C[C@H](CO)N1C[C@H](C)[C@@H](CN(C)C(=O)c2cccc(F)c2)Oc2ncc(/C=C/c3ccccc3)cc2C1=O
  14, 2[16.7 µM]
CNC(=O)C[C@@H]1CC[C@H]2[C@H](COc3ccc(NC(=O)c4ccccc4F)cc3C(=O)N2C)O1
  7, 4[16.7 µM]
Cc1ccc(S(=O)(=O)N(C)C[C@@H]2Oc3c(NS(=O)(=O)c4c(C)noc4C)cccc3C(=O)N([C@@H](C)CO)C[C@@H]2C)cc1
  -3, 3[16.7 µM]
COc1ccc(NC(=O)N(C)C[C@H]2Oc3ccc(NC(=O)Nc4ccc(F)cc4)cc3C(=O)N([C@@H](C)CO)C[C@H]2C)cc1
  6, -84[16.7 µM]
CCCN(C)C[C@H]1Oc2ncc(C#CC3CCCCC3)cc2C(=O)N([C@H](C)CO)C[C@@H]1C
  14, 18[16.7 µM]

# New compounds follow:
# Screens in order: UUG fidelity, Env fusion inh
COc1ccc(S(=O)(=O)Nc2ccc3c(c2)C(=O)N([C@@H](C)CO)C[C@@H](C)[C@H](CN(C)Cc2ccncc2)OCCCC[C@@H](C)O3)cc1
  6, 12[16.7 µM]
C[C@H]1CN([C@@H](C)CO)S(=O)(=O)c2ccc(C#Cc3cccc(F)c3)cc2O[C@H]1CN(C)C(=O)CN1CCOCC1
  27, -13[16.7 µM]
COc1ccc(NC(=O)Nc2ccc3c(c2)C(=O)N([C@@H](C)CO)C[C@H](C)[C@H](CN(C)Cc2ccncc2)OCCCC[C@H](C)O3)cc1
  1, 88*[16.7 µM]
CCNC(=O)C[C@H]1CC[C@@H]2[C@H](COC[C@H](O)CN2C(=O)C2CCOCC2)O1
  -7, -13[16.7 µM]
C[C@H]1CN([C@@H](C)CO)C(=O)c2cccc(NS(=O)(=O)c3cccs3)c2O[C@H]1CN(C)S(=O)(=O)c1ccc(Cl)cc1
  -1, -10[16.7 µM]
CCC(=O)N(C)C[C@@H]1Oc2ncc(-c3ccccc3F)cc2C(=O)N([C@H](C)CO)C[C@H]1C
  -8, -16[16.7 µM]
C[C@H]1CN([C@@H](C)CO)C(=O)c2cc(NS(=O)(=O)c3ccc(F)cc3)ccc2O[C@@H]1CN(C)Cc1ccccc1
  12, -10[16.7 µM]
O=C(N[C@H]1CC[C@H](CC(=O)N2CCc3ccccc3C2)O[C@@H]1CO)C1CC1
  8, 4[16.7 µM]
C/C=C/c1cnc2c(c1)C(=O)N([C@@H](C)CO)C[C@H](C)[C@H](CN(C)C(=O)CN1CCOCC1)O2
  2, 12[16.7 µM]
C[C@@H]1CN([C@@H](C)CO)C(=O)Cc2cc(NC(=O)Nc3ccc(C(F)(F)F)cc3)ccc2O[C@@H]1CN(C)Cc1ccccc1
  2, 0[16.7 µM]

# (list continues)
# Screens in order: UUG fidelity, Env fusion inh
COc1ccc(NC(=O)Nc2ccc3c(c2)C(=O)N([C@H](C)CO)C[C@H](C)[C@H](CN(C)S(=O)(=O)c2ccc(Cl)cc2)OCCCC[C@H](C)O3)cc1
  -4, 16[16.7 µM]
C[C@H]1CN([C@@H](C)CO)C(=O)Cc2cc(NC(=O)Cc3ccccc3)ccc2O[C@H]1CN(C)S(C)(=O)=O
  -4, 9[16.7 µM]
COc1ccc(NC(=O)Nc2ccc3c(c2)C(=O)N([C@@H](C)CO)C[C@H](C)[C@@H](CN(C)S(=O)(=O)c2ccc(Cl)cc2)OCCCC[C@H](C)O3)cc1
  -5, 22[16.7 µM]
O=C(C[C@H]1CC[C@H](NC(=O)C2CCOCC2)[C@H](CO)O1)NCC1CCCCC1
  -24, -2[16.7 µM]
O=C(Nc1ccccc1)N[C@H]1CC[C@H](CCNC(=O)c2ccccc2F)O[C@H]1CO
  89, 3[16.7 µM]
CCC(=O)Nc1ccc2c(c1)OC[C@@H](C)N(Cc1ccncc1)C[C@@H](C)[C@H](OC)CN(C)C2=O
  25, 5[16.7 µM]
CCCNC(=O)N(C)C[C@@H]1Oc2ncc(-c3ccc(OC)cc3)cc2C(=O)N([C@@H](C)CO)C[C@@H]1C
  -1, 21[16.7 µM]
CCC(=O)Nc1ccc2c(c1)OC[C@@H](C)N(C(=O)CN1CCOCC1)C[C@@H](C)[C@H](OC)CN(C)C2=O
  26, 4[16.7 µM]
C[C@H](CO)N1C[C@H](C)[C@H](CN(C)S(=O)(=O)c2ccc(C#N)cc2)Oc2ncc(C#CCN(C)C)cc2C1=O
  -8, -5[16.7 µM]
CC(C)NC(=O)N(C)C[C@H]1Oc2ncc(-c3ccc(C(=O)N(C)C)cc3)cc2C(=O)N([C@@H](C)CO)C[C@@H]1C
  0, -54[16.7 µM]

# Record cards, from the list above. Order of screens: UUG fidelity	Env fusion inh
# `CCC(=O)Nc1ccc2c(c1)OC[C@@H](C)N(C(=O)CN1CCOCC1)C[C@@H](C)[C@H](OC)CN(C)C2=O` across the screens: 26	4[16.7 µM]
# `C/C=C/c1cnc2c(c1)C(=O)N([C@@H](C)CO)C[C@H](C)[C@H](CN(C)C(=O)CN1CCOCC1)O2` across the screens: 2	12[16.7 µM]
# `COc1ccc(NC(=O)Nc2ccc3c(c2)[C@@H]2C[C@@H](CC(=O)NC4CCCC4)O[C@@H](CO)[C@@H]2O3)cc1` across the screens: 5	-1[16.7 µM]
# `CCNC(=O)C[C@H]1CC[C@@H]2[C@H](COC[C@H](O)CN2C(=O)C2CCOCC2)O1` across the screens: -7	-13[16.7 µM]
# `CNC(=O)C[C@@H]1CC[C@H]2[C@H](COc3ccc(NC(=O)c4ccccc4F)cc3C(=O)N2C)O1` across the screens: 7	4[16.7 µM]

# Next part
# Screens in order: UUG fidelity, Env fusion inh
O=C(C[C@@H]1CC[C@H]2[C@@H](COC[C@@H](O)CN2CC2CCCCC2)O1)NCc1ccc(F)cc1
  16, 0[16.7 µM]
CNC[C@@H]1OCCCC[C@H](C)Oc2ccc(NC(=O)CCC(F)(F)F)cc2C(=O)N([C@@H](C)CO)C[C@H]1C
  5, -20[16.7 µM]
C[C@@H]1CCCCO[C@@H](CN(C)Cc2ccncc2)[C@H](C)CN([C@H](C)CO)C(=O)c2cc(NC(=O)Nc3ccc(C(F)(F)F)cc3)ccc2O1
  27, 19[16.7 µM]
C[C@@H]1CN([C@@H](C)CO)C(=O)c2cc(C#CC(C)(C)O)cnc2O[C@H]1CN(C)C(=O)CC1CC1
  -5, -20[16.7 µM]
Cc1noc(C)c1NC(=O)Nc1ccc2c(c1)C(=O)N([C@H](C)CO)C[C@H](C)[C@H](CN(C)C(=O)Nc1c(C)noc1C)OCCCC[C@@H](C)O2
  1, -14[16.7 µM]
C[C@H]1CN([C@@H](C)CO)C(=O)Cc2cc(NC(=O)Nc3ccc(F)cc3)ccc2O[C@@H]1CN(C)Cc1ccccc1
  6, -8[16.7 µM]
CO[C@H]1CN(C)C(=O)c2ccc(NC(=O)c3ccccc3F)cc2OC[C@H](C)NC[C@H]1C
  -17, -5[16.7 µM]
C[C@@H]1CCCCO[C@@H](CN(C)S(=O)(=O)c2ccccc2)[C@H](C)CN([C@H](C)CO)C(=O)c2cc(NS(C)(=O)=O)ccc2O1
  -1, 11[16.7 µM]
CC(C)CC#Cc1cnc2c(c1)C(=O)N([C@@H](C)CO)C[C@@H](C)[C@H](CN(C)S(C)(=O)=O)O2
  29, -36[16.7 µM]
C[C@H]1CN([C@@H](C)CO)S(=O)(=O)c2ccc(-c3cncnc3)cc2O[C@H]1CN(C)C(=O)CC1CC1
  1, 10[16.7 µM]

# Further entries follow:
# Screens in order: UUG fidelity, Env fusion inh
C[C@@H]1CCCCO[C@@H](CN(C)S(=O)(=O)c2ccccc2)[C@@H](C)CN([C@H](C)CO)C(=O)c2cc(NC(=O)NC3CCCCC3)ccc2O1
  -16, 23[16.7 µM]
CCCC#Cc1ccc([C@H]2[C@@H](CO)N(C(=O)C3CCCC3)[C@H]2C#N)cc1
  8, 5[16.7 µM]
CCCCn1nnnc1C(C1CC1)N1CCN(C/C=C/c2ccccc2)CC1 (stereo not given)
  -4, -12
Cc1ccc(S(=O)(=O)Nc2ccc3c(c2)C(=O)N([C@H](C)CO)C[C@@H](C)[C@@H](CN(C)S(C)(=O)=O)OCCCC[C@@H](C)O3)cc1
  18, -2[16.7 µM]
C[C@@H]1CN([C@@H](C)CO)C(=O)c2cc(NS(=O)(=O)c3cccs3)ccc2O[C@@H](C)CCCCO[C@H]1CN(C)Cc1ccc(C(=O)O)cc1
  22, -1[16.7 µM]
COc1ccc(C#Cc2cnc3c(c2)C(=O)N([C@@H](C)CO)C[C@@H](C)[C@@H](CN(C)CC2CCCC2)O3)cc1
  5, -3[16.7 µM]
C[C@H]1CN([C@@H](C)CO)C(=O)Cc2cc(NS(=O)(=O)c3ccccc3)ccc2O[C@@H]1CN(C)Cc1ccccc1
  -5, -18[16.7 µM]
CCNC(=O)C[C@@H]1CC[C@@H](NS(=O)(=O)c2ccc(F)cc2)[C@@H](CO)O1
  -18, 7[16.7 µM]
C[C@@H]1CCCCO[C@H](CN(C)C(=O)C2CCCCC2)[C@@H](C)CN([C@H](C)CO)C(=O)c2cc(NS(=O)(=O)c3ccc(F)cc3)ccc2O1
  -10, -123[16.7 µM]
C[C@@H]1CCCCO[C@H](CN(C)S(=O)(=O)c2ccccc2)[C@H](C)CN([C@@H](C)CO)C(=O)c2cc(NC(=O)Nc3ccccc3)ccc2O1
  -4, 2[16.7 µM]

# The results go on:
# Screens in order: UUG fidelity, Env fusion inh
C[C@@H]1CN([C@H](C)CO)C(=O)c2cc(NS(=O)(=O)c3ccc(F)cc3)ccc2O[C@@H](C)CCCCO[C@@H]1CN(C)C(=O)CCCN(C)C
  17, 10[16.7 µM]
C[C@@H]1CN([C@@H](C)CO)S(=O)(=O)c2ccc(-c3ccncc3)cc2O[C@@H]1CN(C)Cc1cncnc1
  -11, 3[16.7 µM]
C[C@@H]1CN([C@H](C)CO)C(=O)c2cc(C#CCc3ccccc3)cnc2O[C@@H]1CN(C)Cc1ccccn1
  -11, 4[16.7 µM]
COCC#Cc1ccc2c(c1)O[C@@H](CN(C)C(=O)C1CCCCC1)[C@@H](C)CN([C@@H](C)CO)S2(=O)=O
  -8, -23[16.7 µM]
CCCNC(=O)N(C)C[C@@H]1Oc2ncc(C#CCc3ccccc3)cc2C(=O)N([C@H](C)CO)C[C@H]1C
  17, 13[16.7 µM]
CC(=O)N(C)C[C@@H]1Oc2cc(C#C[C@@H](C)O)ccc2S(=O)(=O)N([C@H](C)CO)C[C@@H]1C
  -6, 3[16.7 µM]
O=C(C[C@H]1C=C[C@@H](NS(=O)(=O)c2ccccc2)[C@@H](CO)O1)N1CCc2ccccc2C1
  -13, 10[16.7 µM]
Cc1noc(C)c1S(=O)(=O)Nc1ccc2c(c1)CC(=O)N([C@H](C)CO)C[C@H](C)[C@H](CN(C)S(=O)(=O)c1ccccc1)O2
  12, 47[16.7 µM]
CC(C)C(=O)Nc1ccc2c(c1)C(=O)N(C)[C@H]1CC[C@H](CC(=O)NCc3ccc(F)cc3)O[C@@H]1CO2
  -7, -6[16.7 µM]
C[C@H](CO)N1C[C@H](C)[C@H](CN(C)S(=O)(=O)c2cn(C)cn2)OCCCC[C@H](C)Oc2ccc(NC(=O)C3CCCCC3)cc2C1=O
  7, -9[16.7 µM]

# (list continues)
# Screens in order: UUG fidelity, Env fusion inh
C[C@@H]1CN([C@@H](C)CO)C(=O)c2cc(NC(=O)Nc3ccccc3)ccc2O[C@@H](C)CCCCO[C@@H]1CN(C)S(=O)(=O)c1ccccc1
  -21, -18[16.7 µM]
C[C@@H]1CN([C@H](C)CO)C(=O)c2cc(NC(=O)CCCN(C)C)ccc2O[C@@H](C)CCCCO[C@H]1CN(C)Cc1ccncc1
  -23, -8[16.7 µM]
COc1ccc(S(=O)(=O)N(C)C[C@@H]2OCCCC[C@@H](C)Oc3ccc(NC(=O)Nc4ccc(C(F)(F)F)cc4)cc3C(=O)N([C@@H](C)CO)C[C@@H]2C)cc1
  -16, -2[16.7 µM]
C[C@H]1CN([C@@H](C)CO)S(=O)(=O)c2ccc(C#Cc3ccccn3)cc2O[C@H]1CN(C)Cc1ccccc1
  -5, -6[16.7 µM]
COc1ccc(-c2cnc3c(c2)C(=O)N([C@H](C)CO)C[C@H](C)[C@H](CN(C)S(=O)(=O)c2cccs2)O3)cc1
  3&6, -8&2[16.7 µM]
COCC#Cc1ccc2c(c1)O[C@@H](CN(C)C(=O)CN(C)C)[C@@H](C)CN([C@H](C)CO)S2(=O)=O
  -5, 2[16.7 µM]
CCNC(=O)Nc1ccc2c(c1)C(=O)N(C)[C@@H]1CC[C@H](CC(=O)NCc3cccc(F)c3)O[C@H]1CO2
  -19, -3[16.7 µM]
COc1ccc(S(=O)(=O)N[C@H]2C=C[C@@H](CC(=O)O)O[C@H]2CO)cc1
  -12, 4[16.7 µM]
CC(C)NC(=O)Nc1cccc2c1O[C@H](CN(C)C(=O)Nc1cccc3ccccc13)[C@@H](C)CN([C@@H](C)CO)C2=O
  12, 13[16.7 µM]
O=C(CN1CCOCC1)NCC[C@H]1CC[C@H](NC(=O)Nc2ccc(F)cc2)[C@@H](CO)O1
  6, 2[16.7 µM]

# An excerpt; the hit share may differ from the screen's.
